Bioassay records (PubChem BioAssay)
StopGo reporter = lowers the luciferase signal of an FMDV 2A StopGo reporter | actives 1.2% (n = 410,000) | Potency, µM (series often up to 57.9 µM), for the others: at the top dose signal change, negative = less light | AID 1159524 | human cells with a luciferase reporter of 2A StopGo recoding; control for the full effect not named in the record; active = well fitted falling curve with a large enough effect; inconclusive = small, poorly fitted or top-dose-only effect; inactive = no such curve, though single readings can be large or run the other way; tested in HEK293T cells; also: % is scaled to controls: 0 for no effect and ±100 for the full control effect; nearly all actives have a fitted effect of over 45% in size; luciferase light after 4 h
Cruzain Triton = inhibitors of Trypanosoma cruzi cruzain with detergent; purified cruzain, Z-FR-AMC fluorescence, 0.01% Triton; AID 1478; actives 0.43% (n = 200,000); Potency, µM, without a hit: max response, negative = inhibition, most hits filed as inhibitors; active = well fitted curve in the direction sought with a large enough effect; inconclusive = small, poorly fitted or top-dose-only effect, or another doubt; inactive = no such curve, though single readings can be large; an effect the other way counts as inactive or inconclusive;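 also: plate controls were neutral wells for no effect and buffer without enzyme for full effect; nearly all actives have a fitted effect of over 40% in size; top concentration of the series not given in the record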
Target sequence (P25779 123-467 limits assumed): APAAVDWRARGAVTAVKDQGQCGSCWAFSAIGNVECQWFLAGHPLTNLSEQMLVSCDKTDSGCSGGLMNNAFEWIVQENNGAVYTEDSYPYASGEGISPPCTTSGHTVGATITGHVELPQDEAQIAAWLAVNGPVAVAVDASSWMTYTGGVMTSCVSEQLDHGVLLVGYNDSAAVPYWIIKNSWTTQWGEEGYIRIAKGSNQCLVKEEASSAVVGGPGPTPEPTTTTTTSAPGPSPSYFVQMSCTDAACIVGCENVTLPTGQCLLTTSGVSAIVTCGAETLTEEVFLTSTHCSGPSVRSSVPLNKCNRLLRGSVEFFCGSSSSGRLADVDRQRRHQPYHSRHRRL
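Z-FR-AMC hydrolysis (2 uM substrate) by cruzain (1.5 nM) monitored kinetically at ex 360/em 450 nm after 15 min room-temperature compound exposure; 0.01% Triton X-100, pH 5.5, 5 mM DTT.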
RE007 growth inh = less growth of the S. pombe RE007 Vpr strain. S. pombe RE007 Vpr strain, BacTiter-Glo ATP luminescence, 24 h; control for the full effect not named in the record. Potency, µM (top dose mostly 92.2 µM), for the others: at the top dose activity change, negative = less growth. actives 0.21% (n = 360,000); active = well fitted falling curve with a large enough effect; inconclusive = small, poorly fitted or top-dose-only effect; inactive = no such curve, though single readings can be large or run the other way;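 also: % is scaled to controls: 0 for no effect and ±100 for the full control effect; nearly all actives have a fitted effect of over 50% in size; the assay follows cell death caused by Vpr and the record does not say whether a fall means rescue or toxicity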
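Fission yeast RE007 carrying one integrated HIV-1 vpr copy, seeded at OD 0.01 in PMG+AL medium with 23 nL pinned compound. Grown 24 h at 30 degrees; viability read by BacTiter-Glo luminescence after 5 min.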
MARV entry inh = inhibitors of Marburg virus binding or cell entry. Marburg virus pseudotyped entry inhibition, cell reporter; control for the full effect not named in the record; about a third of the inactives were read at about 46 µM. Potency, µM (series often up to 37.8 µM), for the others: at the top dose activity change, negative = inhibition, most hits filed as inhibitors. actives 1.8% (n = 300,000). AID 540276; active = well fitted inhibition curve with a large enough effect; inconclusive = small, poorly fitted or top-dose-only effect, or effect the other way; inactive = flat fitted curve, though single readings scatter; tested in HEK293 cells; about a fifth of its hits are not listed in these tables; also: % is scaled to controls: 0 for no effect and ±100 for the full control effect; luciferase read-out
Lassa entry inh = inhibitors of Lassa virus binding or cell entry | Lassa virus pseudotype entry inhibition, cell reporter; control for the full effect not named in the record | Potency, µM (doses to about 37.9 µM), inactives show top-dose activity change, negative = inhibition, most hits filed as inhibitors | actives 1.2% (n = 300,000); active means well fitted inhibition curve with a large enough effect; inconclusive means small, poorly fitted or top-dose-only effect, or effect the other way; inactive means flat fitted curve, though single readings scatter; tested in HEK293 cells; also: % is scaled to controls: 0 for no effect and ±100 for the full control effect; nearly all actives have a fitted effect of over 50% in size; luciferase read-out
NS1 inh = influenza NS1 inhibition; S. cerevisiae slowed by influenza A NS1, growth recovery by OD600; Potency, µM (series often up to 46.1 µM), for inactives: top-dose activity, positive = more growth; actives 0.4% (n = 270,000); also: actives are rising curves; nearly all actives have a fitted effect of over 50% in size
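S. cerevisiae expressing influenza A NS1, grown in glucose, washed, then diluted 1:100 into pH 6.0 -URA galactose medium with 23 nl compound. Growth recovery read as OD600; NS1-free strain serves as control.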
Cruzain noTriton = inhibitors of Trypanosoma cruzi cruzain without detergent. P25779. AID 1476. Potency, µM, inactives show max response, negative = inhibition, most hits filed as inhibitors. actives 2.3% (n = 200,000). purified cruzain, Z-FR-AMC fluorescence, no detergent; active = well fitted curve in the direction sought with a large enough effect; inconclusive = small, poorly fitted or top-dose-only effect, or another doubt; inactive = no such curve, though single readings can be large; an effect the other way counts as inactive or inconclusive;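 also: plate controls were enzyme without inhibitor for no effect and buffer without enzyme for full effect; nearly all actives have a fitted effect of over 40% in size; top concentration of the series not given in the record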
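Detergent-free condition (0.00005% Triton X-100) in acetate buffer pH 5.5 with DTT. 1.5 nM enzyme and compound were pre-mixed 15 min, then 2 uM Z-FR-AMC substrate added; reaction progress from fluorescence change between first and third reads (60 s).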
SARS PLP yeast = blocks SARS-CoV papain-like protease in a yeast assay. S. cerevisiae expressing SARS-CoV PLpro, growth rescue; control for the full effect not named in the record. Potency, µM (highest dose often 32.9 µM), inactives show at the highest dose activity, positive = growth rescue. actives 0.19% (n = 330,000). AID 485353; also: 0% is about no effect; nearly all actives have a fitted effect of over 55% in size; growth read by luminescence after 48 h
* = called active by the depositor; & = joins results of further samples; [ ] = remark or other dose. Unless noted, calls follow the shape of the dose curve; as a rule, active means well fitted rising curve with a large enough effect; inconclusive means small, poorly fitted or top-dose-only effect; inactive means no such curve, though single readings can be large or run the other way. Potency is read from the fitted curve at half-maximal effect.

What do the screens show for `O=C(CN1C(=O)NC2(CCCC2)C1=O)Nc1cc(S(=O)(=O)N2CCCCC2)ccc1Cl`?
StopGo reporter: -4%; RE007 growth inh: -20%; MARV entry inh: 8%; Lassa entry inh: -28%; SARS PLP yeast: 1%

What do the screens show for `CCOc1ccc(S(=O)(=O)N2CCC(C(=O)N3CCCC3)CC2)cc1C`?
StopGo reporter: inconclusive; RE007 growth inh: 1%; MARV entry inh: -13%[46.1 µM]; Lassa entry inh: inconclusive; NS1 inh: -6%; SARS PLP yeast: 2%

Results for O=C(NNC1OC(CO)C(O)C(O)C1O)c1cccnc1 (configuration not stated) ?
StopGo reporter: -3%; RE007 growth inh: 0%; MARV entry inh: -2%[14.2 µM]; Lassa entry inh: 8%; NS1 inh: 12%; SARS PLP yeast: 0%

How did Cc1nc(CNC(=O)c2cc(COc3c(F)cccc3F)on2)cs1 do in these assays?
StopGo reporter: 13%; RE007 growth inh: 2%; MARV entry inh: -1%[46.1 µM]; Lassa entry inh: 3%; NS1 inh: 1%; SARS PLP yeast: -3%

Results for O=S(=O)(c1ccc(Cl)cc1)c1snnc1-c1ccccc1 ?
StopGo reporter: 10µM*; Cruzain Triton: -1.4%; RE007 growth inh: -20%; MARV entry inh: 16µM*; Lassa entry inh: inconclusive; NS1 inh: -134%; Cruzain noTriton: -1%; SARS PLP yeast: -33%

What do the screens show for `Cc1ccc(-c2nc(CS(=O)CC(=O)NCc3ccc(Cl)cc3)c(C)o2)cc1` (configuration not stated)?
StopGo reporter: -12%; Cruzain Triton: -1.5%; RE007 growth inh: -7%; NS1 inh: inconclusive; Cruzain noTriton: inconclusive; SARS PLP yeast: 18%

How did CC(C)Oc1ccc(N2CC(C(=O)Nc3ccccc3F)CC2=O)cc1 (configuration not stated) do in these assays?
StopGo reporter: 0%; Cruzain Triton: 0.8%; RE007 growth inh: 10%; MARV entry inh: -15%; Lassa entry inh: -4%; NS1 inh: -8%; Cruzain noTriton: -1%; SARS PLP yeast: 2%

What do the screens show for `O=C(c1cccnc1)N1CCN(C(=O)c2cccs2)CC1`?
StopGo reporter: -10%; Cruzain Triton: 3.3%; RE007 growth inh: -4%; MARV entry inh: 3%; Lassa entry inh: 12%; NS1 inh: -8%; Cruzain noTriton: -4%; SARS PLP yeast: 2%

What do the screens show for `N/C(=N\OC(=O)CCCc1ccccc1)c1ccccc1`?
StopGo reporter: 8%; RE007 growth inh: -4%; MARV entry inh: -2%[46.1 µM]; Lassa entry inh: 15%[46.1 µM]; NS1 inh: -17%; SARS PLP yeast: 1%

What do the screens show for `O=C(NCc1ccccc1)c1cnc(N2CCCCC2)c2ccccc12`?
StopGo reporter: 19%; Cruzain Triton: -5.8%; Lassa entry inh: -13%[46.1 µM]; Cruzain noTriton: -11%

How did CC(=O)N1CCN(CCN=CC2=C(O)CC(c3ccco3)CC2=O)CC1 (configuration not stated) do in these assays?
StopGo reporter: 9%; Cruzain Triton: 1.3%; RE007 growth inh: 0%; MARV entry inh: inconclusive; Lassa entry inh: 8%; NS1 inh: -5%; Cruzain noTriton: -14%; SARS PLP yeast: inconclusive

What do the screens show for `O=C1/C(=C/c2ccc(O)cc2)CCc2ccc([N+](=O)[O-])cc21`?
StopGo reporter: 8%; Cruzain Triton: -3.1%; RE007 growth inh: -2%; MARV entry inh: 37%; Lassa entry inh: 9%; NS1 inh: -9%; Cruzain noTriton: -9%; SARS PLP yeast: 6%

What do the screens show for `COc1cccc(CC(NC(C)=O)C(=O)NC2CCN(S(=O)(=O)c3ccc(NC(C)=O)cc3)CC2)c1` (configuration not stated)?
StopGo reporter: -7%; RE007 growth inh: -3%; MARV entry inh: -2%[46.1 µM]; Lassa entry inh: 15%; NS1 inh: -3%; SARS PLP yeast: -2%

What do the screens show for `O=C(Cc1ccccc1)NCC(=O)N1CCCCCC1`?
StopGo reporter: 38%[activator]; Cruzain Triton: 4.5%; RE007 growth inh: -1%; MARV entry inh: 27%; Lassa entry inh: 15%; NS1 inh: 1%; Cruzain noTriton: 10%; SARS PLP yeast: 1%

How did COc1cccc(CN2CCC(n3nccc3NC(=O)CCOc3ccccc3)CC2)c1 do in these assays?
StopGo reporter: 14%; RE007 growth inh: 9%; NS1 inh: -8%; SARS PLP yeast: -1%

What do the screens show for `O=c1oc(-c2ccccc2)c(-c2ccccc2)c2ccccc12`?
StopGo reporter: -1%; RE007 growth inh: 3%; MARV entry inh: inconclusive

What do the screens show for `O=C(CN1CCN(Cc2ccc(F)cc2)C1=O)NCc1ccccc1Cl`?
StopGo reporter: 34%[activator]; Cruzain Triton: -3.1%; MARV entry inh: 3%[46.1 µM]; Lassa entry inh: 0%[46.1 µM]; Cruzain noTriton: -3%

Results for COc1ccc(CNC(=O)C2COc3ccccc3O2)cc1 (configuration not stated) ?
StopGo reporter: 60%[activator]; Cruzain Triton: -0.7%; RE007 growth inh: -29%; MARV entry inh: -1%[46.1 µM]; Lassa entry inh: 0%; NS1 inh: 5%; Cruzain noTriton: 3%; SARS PLP yeast: -10%

How did COC(=O)c1ccc(C)c(-n2c(=O)n(Cc3ccccc3)c(=O)c3[nH]cnc32)c1 do in these assays?
StopGo reporter: -23%; RE007 growth inh: -4%; MARV entry inh: -14%[46.1 µM]; Lassa entry inh: 3%[46.1 µM]; NS1 inh: 6%; SARS PLP yeast: 0%

What do the screens show for `COC(=O)CS(=O)(=O)c1cc([N+](=O)[O-])ccc1NC(=O)OC`?
StopGo reporter: 15%; RE007 growth inh: -5%; MARV entry inh: 13%[46.1 µM]; SARS PLP yeast: 1%

Results for Cc1ccc(C(=O)Oc2cccc(NC(=O)c3ccco3)c2)cc1S(=O)(=O)N1CCC(C)CC1 ?
StopGo reporter: 4%; Cruzain Triton: 6.2%; RE007 growth inh: -10%; MARV entry inh: 12%; Lassa entry inh: 2%; NS1 inh: 29%; Cruzain noTriton: -28%; SARS PLP yeast: -2%

How did Cc1cc(=O)oc2cc(OCCC[n+]3ccccc3)ccc12 do in these assays?
StopGo reporter: -7%; RE007 growth inh: 2%; MARV entry inh: 2%[46.1 µM]; Lassa entry inh: -8%[46.1 µM]; NS1 inh: 1%; SARS PLP yeast: 1%

Results for COc1cc([N+](=O)[O-])ccc1NC(=O)Cn1ccsc1=N ?
StopGo reporter: -14%; RE007 growth inh: 1%; MARV entry inh: inconclusive; Lassa entry inh: -8%[46.1 µM]; NS1 inh: 4%; SARS PLP yeast: 2%

Results for CCn1c(COc2ccccc2C)nnc1SCC(=O)CC(=O)Nc1ccccc1OC ?
StopGo reporter: -24%; Cruzain Triton: -10%; RE007 growth inh: -5%; MARV entry inh: -9%&-9%; Lassa entry inh: 25%; NS1 inh: 1%; Cruzain noTriton: inconclusive; SARS PLP yeast: -3%

Results for CCCc1cc(=O)[nH]c(SCC(=O)N(CCC#N)c2ccc3c(c2)OCCO3)n1 ?
StopGo reporter: -28%; RE007 growth inh: -6%; MARV entry inh: 6%; Lassa entry inh: 1%; SARS PLP yeast: 4%

How did COC(=O)CN(C)C1CC(=O)N(c2ccc(Cl)cc2)C1=O (configuration not stated) do in these assays?
StopGo reporter: -17%; Cruzain Triton: -2.6%; RE007 growth inh: 16µM*; MARV entry inh: 0%; Lassa entry inh: -1%; NS1 inh: -48%; Cruzain noTriton: -8%; SARS PLP yeast: -36%

How did C/C(=N\NC(=S)Nc1cccc(C)c1)c1ccccc1 do in these assays?
StopGo reporter: 19%; Cruzain Triton: -10%; RE007 growth inh: -10%; MARV entry inh: -24%; Lassa entry inh: inconclusive; NS1 inh: -43%; Cruzain noTriton: 2%; SARS PLP yeast: inconclusive

How did CCCCC(=O)N/N=C(\C)CC(=O)Nc1cc(Cl)ccc1OC do in these assays?
StopGo reporter: -7%; Cruzain Triton: 0.0%; RE007 growth inh: 4%; MARV entry inh: -24%[46.1 µM]; Lassa entry inh: -7%; NS1 inh: 17%; Cruzain noTriton: 7%; SARS PLP yeast: -13%

Results for O=C(Cc1ccc(-n2cccc2)cc1)N1CCc2ccccc21 ?
StopGo reporter: 5%; Cruzain Triton: 7.3%; RE007 growth inh: 9%; MARV entry inh: inconclusive; Lassa entry inh: 0%; NS1 inh: 5%; Cruzain noTriton: inconclusive; SARS PLP yeast: 1%

How did COc1ccc(OC)c(NC(=O)N(C)CCc2c(C)nn(C)c2C)c1 do in these assays?
StopGo reporter: -10%; Cruzain Triton: 0.3%; Lassa entry inh: -6%[46.1 µM]; Cruzain noTriton: 0%

Results for CN(c1ccc(C(=O)NCCSC(C)(C)C)cc1)S(C)(=O)=O ?
StopGo reporter: 7%; Cruzain Triton: 4.0%; RE007 growth inh: 10%; MARV entry inh: inconclusive; Lassa entry inh: inconclusive; NS1 inh: 6%; Cruzain noTriton: -2%; SARS PLP yeast: 3%

How did COc1ccc(CNC(=O)c2cc(S(=O)(=O)N3CCCC3)cn2C)cc1 do in these assays?
StopGo reporter: -21%; RE007 growth inh: -2%; NS1 inh: 5%; SARS PLP yeast: 4%

Results for CCC(C)NC(=O)CSc1nnc(-c2ccncc2)n1-c1ccc(OC)cc1 (configuration not stated) ?
StopGo reporter: -17%; Cruzain Triton: 2.9%; RE007 growth inh: -3%; MARV entry inh: 4%; Lassa entry inh: -3%; NS1 inh: 2%; Cruzain noTriton: 4%; SARS PLP yeast: 7%

Molecules shown so far that have an NH in an aromatic ring (2):
How did COC(=O)c1ccc(C)c(-n2c(=O)n(Cc3ccccc3)c(=O)c3[nH]cnc32)c1 do in these assays?
StopGo reporter: -23%; RE007 growth inh: -4%; MARV entry inh: -14%[46.1 µM]; Lassa entry inh: 3%[46.1 µM]; NS1 inh: 6%; SARS PLP yeast: 0%

Results for CCCc1cc(=O)[nH]c(SCC(=O)N(CCC#N)c2ccc3c(c2)OCCO3)n1 ?
StopGo reporter: -28%; RE007 growth inh: -6%; MARV entry inh: 6%; Lassa entry inh: 1%; SARS PLP yeast: 4%
